VDR inh = vitamin D3 receptor (human) inhibition; P11473; VDR-SRC2-3 peptide fluorescence polarization, 2 h; Potency, µM, without a hit: max response, negative = inhibition, usual class: inhibitors; 400,000 compounds, 0.93% hits; active = well fitted inhibition curve with a large enough effect; inconclusive = small, poorly fitted or top-dose-only effect, or another doubt; inactive = no such curve, though single readings can be large or run the other way; also: series mostly up to about 120 µM
Target sequence (P11473 whole entry, looked up): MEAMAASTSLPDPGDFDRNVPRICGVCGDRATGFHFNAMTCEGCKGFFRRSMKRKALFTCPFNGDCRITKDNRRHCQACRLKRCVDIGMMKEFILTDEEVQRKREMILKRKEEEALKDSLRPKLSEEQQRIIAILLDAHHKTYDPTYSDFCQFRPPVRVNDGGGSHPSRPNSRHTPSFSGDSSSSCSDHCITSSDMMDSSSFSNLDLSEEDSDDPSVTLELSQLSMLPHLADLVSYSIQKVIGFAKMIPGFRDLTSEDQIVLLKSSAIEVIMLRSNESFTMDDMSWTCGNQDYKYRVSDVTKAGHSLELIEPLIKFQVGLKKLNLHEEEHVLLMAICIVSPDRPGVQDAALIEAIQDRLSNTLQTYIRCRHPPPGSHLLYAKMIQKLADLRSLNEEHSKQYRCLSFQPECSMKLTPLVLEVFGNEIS
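Compounds are added to VDR with labelled SRC2-3 coactivator peptide and held 2 h at room temperature. Inhibition of the VDR–peptide interaction is then read as a change in fluorescence polarization.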
* marks the source's active call; other numbers are inactive results; & = joins results of further samples; ! = a repeat was not active; [ ] = remark or other dose. % is scaled to controls: 0 for no effect and ±100 for the full control effect; potency is read from the fitted curve at half-maximal effect.

`CCCCN(C)CCNC(=O)CCn1nc(-c2ccc(Cl)cc2)ccc1=O` gave VDR inh -1.6%.
For COc1ccc(N2C(=O)CSC2c2cccc(F)c2)cc1 (stereo not drawn) the results were VDR inh -4.4%.
For C[C@H](CO)N1C[C@H](C)[C@@H](CN(C)C(=O)Nc2ccc(C(F)(F)F)cc2)Oc2c(NS(=O)(=O)c3cn(C)cn3)cccc2C1=O the results were VDR inh 10.0%.
`Cc1ccc(Cn2nc3n(c2=O)-c2cc(Cl)ccc2OC3)cc1` gave VDR inh -3.7%.
For O=C(O)Cc1sc(Nc2ccccc2)nc1-c1ccc(Cl)cc1 the results were VDR inh 3.6%.
Screening CCOC(=O)[C@H]1[C@H]2COc3ccc(OC)cc3[C@@H]2N2C(=O)[C@H](C)NC(=O)[C@@]12C returned VDR inh 4.5%.
`O=C(Nc1cnccn1)Nc1ccccc1Cl` gave VDR inh -15.5%.
CCCNC(=O)CN1CCN(c2ncc(NC(=O)c3ccc(Cl)cc3)cc2C(=O)O)CC1 was read as VDR inh -7.5%.
`CC1CCCN(c2ccc(C(=O)Nc3nnc(C4CC4)s3)cc2[N+](=O)[O-])C1` (stereo not drawn) gave VDR inh 7.2%.
For Cc1cc(C)cc(C(=O)/C=C2\NC(=O)CS2)c1 the results were VDR inh 33.9%[activator].
Screening CN(CC(O)CN)CC(O)CN1CCCCC1 (stereo not drawn) returned VDR inh 3.8%.
`Cc1ccc(S(=O)(=O)NCCC(=O)N2CCCC(C)C2)cc1` (stereo not drawn) gave VDR inh -7.5%.
For CC(NC(=O)C(C(=O)c1cccc([N+](=O)[O-])c1)n1cc(Cl)ccc1=O)c1ccccc1 (stereo not drawn) the results were VDR inh -5.2%.
Screening Cc1cccc(NC(=S)NCCc2ccccn2)c1 returned VDR inh -12.7%.
`COc1ccc(N(CC(=O)NC2CC3CCC2C3)S(=O)(=O)c2ccc(C)c([N+](=O)[O-])c2)cc1` (stereo not drawn) gave VDR inh -9.6%.
For COc1ccc(C(CCNCc2ccc(N(C)C)cc2)c2ccccc2OC)cc1 (stereo not drawn) the results were VDR inh -18.3%.
CCCc1cc(=O)oc2cc3oc(C)c(C)c3cc12 was read as VDR inh 0.1%.
Screening Cc1ccc2nc(-c3ccc(O)cc3)oc2c1 returned VDR inh 5.9%.
For Cn1cncc1C#Cc1ccc2cc(CCCO)oc(=O)c2c1 the results were VDR inh 4.9%.
CCn1cc(C(=O)NCc2ccccc2)c(=O)c2cc(S(=O)(=O)N3CCCCC3)ccc21 was read as VDR inh -29.8%.
For CCOc1ccc(N(CC(=O)NC2CC3CCC2C3)S(=O)(=O)c2ccc(C)cc2)cc1 (stereo not drawn) the results were VDR inh -1.7%.
COc1ccccc1C1NC(c2ccccc2OC)C(C)C(=O)C1C (stereo not drawn) was read as VDR inh 4.0%.
For Cc1ccc(CN2CCN(Cc3cn(C(C)C)c4ccccc34)CC2CCO)o1 (stereo not drawn) the results were VDR inh 1.6%.
COC(=O)c1ccc(C)c(NC(=O)CCSc2ccc(Cl)cc2)c1 was read as VDR inh -3.2%.
`COc1ccc(CC(=O)Nc2nc(-c3cccnc3)cs2)cc1` gave VDR inh -7.9%.
CC(C)(C)OC(=O)N1CCC(c2c(C(=O)NCc3cccc(Cl)c3)cnn2-c2ccc(F)cc2)CC1 was read as VDR inh 3.6%.
CC1(C)Cc2c(c(-c3ccco3)nc3n[nH]c(N)c23)CO1 was read as VDR inh 0.9%.
CCOc1ccc(-n2nc3ccc(NC(=O)COc4ccc(OC)cc4)cc3n2)cc1 was read as VDR inh -16.9%.
Cn1c(SCc2nc(-c3ccc(Cl)cc3)no2)nnc1-c1cccs1 was read as VDR inh 15.6%.
`COc1ccc(C(=O)Nc2ccccc2C(=O)NCc2ccco2)cc1OC` gave VDR inh 9.2%.
COc1cccc(NC(=S)NNC(=O)C(C)n2nc(C)c([N+](=O)[O-])c2C)c1 (stereo not drawn) was read as VDR inh 10.0%.
`CCS(=O)(=O)N1CCCC(C(=O)NCCc2ccc(C)cc2)C1` (stereo not drawn) gave VDR inh 15.0%.
`CC(=O)N[C@@H](CSC/C=C(\C)CC/C=C(\C)CC/C=C(\C)CCC=C(C)C)C(=O)O` gave VDR inh 35.5µM*!.
O=C(/C=C/c1cnc2ccccc2n1)NC12CC3CC(CC(C3)C1)C2 was read as VDR inh 20.0%.
For CC1CN(C(=O)Cn2c(C(F)(F)F)nc3ccccc32)CC(C)O1 (stereo not drawn) the results were VDR inh -12.3%.
Cc1cccc(-n2c(SCC(=O)N3CC(=O)Nc4ccccc43)nc3ccccc3c2=O)c1 was read as VDR inh -8.6%.
CCc1nccn1CCC(=O)NC1CC(C)(C)Cc2c1cnn2-c1cccc(F)c1 (stereo not drawn) was read as VDR inh -12.9%.
CN(Cc1nccs1)C(=O)c1ccc(OC2CCN(Cc3ccccn3)CC2)cc1 was read as VDR inh -7.5%.
For COCCCN(C(=O)c1ccc(N2CCCC2=O)cc1)c1c(N)n(Cc2ccccc2)c(=O)[nH]c1=O the results were VDR inh 4.0%.
Screening CC(=O)Nc1ccc(NC(=O)C(C)OC(=O)C2CCCCC2)cc1 (stereo not drawn) returned VDR inh -7.3%.
For CN(C)Cc1c(C(=O)N/N=C/c2ccc(-c3ccccc3)cc2)nnn1-c1nonc1N the results were VDR inh inconclusive.
Screening COc1ccc(NC(=O)CCc2nc3ccccc3[nH]2)cc1 returned VDR inh 18.5%.
`COCCCN(C(=S)Nc1cccc(Cl)c1)C(C)c1ccncc1` (stereo not drawn) gave VDR inh -14.0%.
`c1ccc2c(c1)CC1(CCCC1)N=C2N1CCOCC1` gave VDR inh -9.8%.
COc1ccc(N(C(=O)/C=C\C(=O)Nc2ccc(C)cc2)C(C(=O)NCc2ccco2)c2ccc(C)cc2)cc1 (stereo not drawn) was read as VDR inh 4.5%.
Screening COc1ccc(N2CC(C(=O)Nc3ccc(S(=O)(=O)Nc4nccs4)cc3)CC2=O)cc1 (stereo not drawn) returned VDR inh 5.8%.
For Fc1ccc2nc(Nc3nc4c(F)cc(F)cc4s3)sc2c1 the results were VDR inh -4.4%.
`Cc1c(CN2CCC(n3nccc3NC(=O)C3CCOC3)CC2)[nH]c2ccccc12` (stereo not drawn) gave VDR inh -19.1%.
For CCCN(CCC)c1cc(C)nc2nc(-c3ccc(Cl)cc3)nn12 the results were VDR inh 11.7%.
`Nc1nc(-c2ccco2)nn1C(=O)c1ccc([N+](=O)[O-])cc1` gave VDR inh 11.6%.
For CCC(=O)NC(NC(=S)Nc1c(C)n(C)n(-c2ccccc2)c1=O)C(Cl)(Cl)Cl (stereo not drawn) the results were VDR inh -8.6%.
COc1ccc(NC(=O)c2cc3ccccc3o2)cn1 was read as VDR inh -5.9%.
For c1ccc2c(Nc3ccc4c(c3)OCCO4)c3c(nc2c1)CCCC3 the results were VDR inh 8.5%.
COC(=O)c1ccn(CSc2cc(Cl)ccc2Cl)n1 was read as VDR inh -19.4%.
CCCN(CCC)C(=O)C1CCCN(S(=O)(=O)c2ccc3c(c2)oc(=O)n3C)C1 (stereo not drawn) was read as VDR inh -4.3%&-0.3%.
Screening CCOc1ccc(S(=O)(=O)Nc2nc3ccccc3nc2-n2ccc(=NC(=O)c3ccccc3C)cc2)cc1 returned VDR inh -13.6%.
`COc1ccccc1C(=O)NCC(=O)N/N=C(\C)Cc1ccccc1` gave VDR inh 5.5%.
Cc1cccc(CCNC(=O)CCNS(=O)(=O)c2cc(Br)cnc2N)c1 was read as VDR inh -1.8%.
CCc1c(C(=O)Nc2ccccc2)c(C)[nH]c(=S)c1C#N was read as VDR inh 15.3%.
For O=C(Nc1ccccc1)C(=O)Nc1ccccn1 the results were VDR inh 2.8%.

Three entries from above, sorted by molar mass, low to high:
For CCCN(CCC)c1cc(C)nc2nc(-c3ccc(Cl)cc3)nn12 the results were VDR inh 11.7%.
Cc1cccc(CCNC(=O)CCNS(=O)(=O)c2cc(Br)cnc2N)c1 was read as VDR inh -1.8%.
Screening COc1ccc(N2CC(C(=O)Nc3ccc(S(=O)(=O)Nc4nccs4)cc3)CC2=O)cc1 (stereo not drawn) returned VDR inh 5.8%.

Returning to the listing, repeating the 7 entries before the break.
COC(=O)c1ccn(CSc2cc(Cl)ccc2Cl)n1 was read as VDR inh -19.4%.
CCCN(CCC)C(=O)C1CCCN(S(=O)(=O)c2ccc3c(c2)oc(=O)n3C)C1 (stereo not drawn) was read as VDR inh -4.3%&-0.3%.
Screening CCOc1ccc(S(=O)(=O)Nc2nc3ccccc3nc2-n2ccc(=NC(=O)c3ccccc3C)cc2)cc1 returned VDR inh -13.6%.
`COc1ccccc1C(=O)NCC(=O)N/N=C(\C)Cc1ccccc1` gave VDR inh 5.5%.
Cc1cccc(CCNC(=O)CCNS(=O)(=O)c2cc(Br)cnc2N)c1 was read as VDR inh -1.8%.
CCc1c(C(=O)Nc2ccccc2)c(C)[nH]c(=S)c1C#N was read as VDR inh 15.3%.
For O=C(Nc1ccccc1)C(=O)Nc1ccccn1 the results were VDR inh 2.8%.
CCOc1ccccc1Oc1c(C)oc2cc(OC(=O)c3ccco3)ccc2c1=O was read as VDR inh -2.1%.
`Cc1ccccc1-c1noc(-c2ccccc2F)n1` gave VDR inh -8.1%.
Cc1cc(O)c(/C=N/c2ccccn2)c(=O)o1 was read as VDR inh 11.2%.
`CCOc1ccccc1NC(=O)CN1C(=O)C(=O)c2ccccc21` gave VDR inh -19.9%.
`O=C(CSc1c2c(nc3cc(Cl)ccc13)CCCC2)NCCN1CCOCC1` gave VDR inh inconclusive.
Screening O=C(NNC(=O)c1ccccc1[N+](=O)[O-])c1csc(N2CCOCC2)n1 returned VDR inh -15.8%.
Screening COc1ccc(NC(C)=O)cc1NC(=O)CN1CCN(c2ccc(F)cc2)CC1 returned VDR inh 8.1%.
For CCOc1ccc2[nH]c(=O)c(CN(Cc3cccs3)Cc3nnnn3C(C)(C)C)cc2c1 the results were VDR inh -1.2%.
Screening COCCn1c(N)c(C(=O)NCc2cccs2)c2nc3ccccc3nc21 returned VDR inh inconclusive.
`CS(=O)(=O)N(CC(=O)NC1CCCCCC1)Cc1ccc(Cl)cc1` gave VDR inh 5.4%.
CC(=O)Oc1ccc(N2C(=O)C3C4C=CC(O4)C3C2=O)cc1 (stereo not drawn) was read as VDR inh -15.1%.
CN(Cc1nc2ccccc2n1C)C(=O)c1cccs1 was read as VDR inh -8.3%.
c1ccc(COn2c(-c3ccccc3)nc3c2CCc2nonc2-3)cc1 was read as VDR inh -4.3%.
CC12CN3CC(C)(CN(C1)C3c1ccc(Br)cc1)C2 (stereo not drawn) was read as VDR inh -11.4%.
For CC(CCCc1ccccc1)NC(=O)c1nn(-c2ccc(Cl)cc2)nc1CO (stereo not drawn) the results were VDR inh 9.6%.
Screening O=C(NC1CCN(Cc2nnnn2CCc2ccccc2)CC1)c1ccccc1F returned VDR inh -7.2%.
`CN(C)CCCCOc1cccc(Br)c1` gave VDR inh 2.5%.
Screening CC(=O)c1c(C)[nH]c(C(=O)OC(C)C(=O)Nc2ccc(C)c(S(=O)(=O)N3CCOCC3)c2)c1C (stereo not drawn) returned VDR inh -7.0%.
Cc1ccc(NC(=O)CSc2nnc(-c3ccncc3)s2)cc1 was read as VDR inh -11.5%.
For CC(=O)OCC(=O)[C@@]1(O)CC[C@H]2[C@@H]3C[C@H](C)C4=CC(=O)C=C[C@]4(C)[C@H]3[C@@H](O)C[C@@]21C the results were VDR inh -2.9%.
Screening COc1ccc(C(=O)NCCSc2c[nH]c3ccccc23)cc1OC returned VDR inh -2.7%.
O=c1c(Cc2ccc(Cl)cc2)c(O)ccn1Cc1ccccc1 was read as VDR inh 16.6%.
For CCc1nc(Nc2ccc(N3CCN(C(C)=O)CC3)cc2)c2oc3ccccc3c2n1 the results were VDR inh 14.2%.
Screening Cc1noc(COc2ccccc2OCC(O)CNC(C)(C)C)n1 (stereo not drawn) returned VDR inh -4.0%.
`O=C(Nc1ccc(CN2CCOCC2)cc1)c1ccc(Cl)cc1Cl` gave VDR inh -11.9%.
Screening COc1ccc(C(=O)Nc2cc(C)on2)cc1OC returned VDR inh -19.6%.
Cc1cccc(N(CC(=O)NCCSCc2ccccc2)S(C)(=O)=O)c1C was read as VDR inh -7.5%.
`CN(CC(O)COc1ccc2ccccc2c1)C1CCCCC1` (stereo not drawn) gave VDR inh -8.2%.
Fc1ccc(-c2cc(-c3ccc(F)cc3)c3c(n2)-c2cc(F)ccc2OC3)cc1 was read as VDR inh -2.0%.
Screening CN(CCOc1ccccc1)C(=O)c1cc(COc2c(F)cccc2F)on1 returned VDR inh -15.1%.
`COc1ccc(S(=O)NC2CCCCC2)c(OC)c1C` (stereo not drawn) gave VDR inh 0.7%.
O=C(CN1C(=O)CCC1=O)Nc1ccc(Br)cc1 was read as VDR inh 3.4%.
Screening CCOC(=O)c1c(C)[nH]c(C(=O)N(C)Cc2cccc(OC)c2OC)c1C returned VDR inh 9.3%.
`COc1ccc(NC(=O)c2ccc3c(c2)N(Cc2cccc(Cl)c2)C(=O)c2ccccc2S3(=O)=O)cc1Cl` gave VDR inh -0.4%.
`Cc1cccnc1NC(=O)c1ccc(Cl)c(S(=O)(=O)N2CCCCC2)c1` gave VDR inh -18.9%.
`COc1cc(OC)cc(-c2nnc(SCC(=O)N(C(C)C)C(C)C)o2)c1` gave VDR inh -1.2%.
Screening N#Cc1ccccc1NC(=O)COC(=O)COc1ccccc1[N+](=O)[O-] returned VDR inh -13.5%.
For CCn1cc(C2=NOC(C(=O)O)C2)c(C)n1 (stereo not drawn) the results were VDR inh 17.2%.
For COCCOc1ccc(C(F)(F)F)cc1NC(=O)c1ccc(F)cc1 the results were VDR inh -18.4%.
Screening Cc1ccc(C(=O)NCCNC(=O)c2ccco2)cc1C returned VDR inh -7.8%.
`CCN1CCN(c2oc(-c3ccc(COc4ccc(OC)cc4)o3)nc2C#N)CC1` gave VDR inh 5.7%.
Cc1nn(CC(=O)N2CCOCC2)c(=O)c2nn(-c3ccccc3)c(C)c12 was read as VDR inh 2.2%.
For CCN(c1ccccc1)S(=O)(=O)c1ccc(OC)c(NC(=O)c2cccs2)c1 the results were VDR inh -11.8%.
For COC(=O)c1c(-c2ccccc2)c(-c2ccccc2)nn(C)c1=O the results were VDR inh -15.6%&7.6%.
Screening CON(C)c1nc(NCC(C)C)nc(OCC#N)n1 returned VDR inh -12.3%.

This is a subset, so the mix of outcomes need not match the whole.
